Bioassay records: PubChem BioAssay, several laboratories
Arbovirus inh: arbovirus infection inhibition | arbovirus infection cell-based antiviral screen | hit rate 0.37% among 200,000 | inhibition, % at 10 µM;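 active = inhibition from about 30%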;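 note: bluetongue infection of BSR cells; cell survival read as ATP light after 72 h; 0% = infected wells without compound and 100% = uninfected wells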
RecA splice inh: inhibitors of M. tuberculosis RecA intein splicing; cell-free RecA intein splicing, fluorescence; inhibition, %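 (about 9 µM by stock and volumes)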; hit rate 0.75% among 290,000; in the data active = inhibition above about 30%; inconclusive = no clear call, values can overlap the other calls;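 note: 0% = vehicle wells and 100% = reference inhibitor control wells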
Target sequence (P9WHJ3 whole entry, looked up, canonical isoform): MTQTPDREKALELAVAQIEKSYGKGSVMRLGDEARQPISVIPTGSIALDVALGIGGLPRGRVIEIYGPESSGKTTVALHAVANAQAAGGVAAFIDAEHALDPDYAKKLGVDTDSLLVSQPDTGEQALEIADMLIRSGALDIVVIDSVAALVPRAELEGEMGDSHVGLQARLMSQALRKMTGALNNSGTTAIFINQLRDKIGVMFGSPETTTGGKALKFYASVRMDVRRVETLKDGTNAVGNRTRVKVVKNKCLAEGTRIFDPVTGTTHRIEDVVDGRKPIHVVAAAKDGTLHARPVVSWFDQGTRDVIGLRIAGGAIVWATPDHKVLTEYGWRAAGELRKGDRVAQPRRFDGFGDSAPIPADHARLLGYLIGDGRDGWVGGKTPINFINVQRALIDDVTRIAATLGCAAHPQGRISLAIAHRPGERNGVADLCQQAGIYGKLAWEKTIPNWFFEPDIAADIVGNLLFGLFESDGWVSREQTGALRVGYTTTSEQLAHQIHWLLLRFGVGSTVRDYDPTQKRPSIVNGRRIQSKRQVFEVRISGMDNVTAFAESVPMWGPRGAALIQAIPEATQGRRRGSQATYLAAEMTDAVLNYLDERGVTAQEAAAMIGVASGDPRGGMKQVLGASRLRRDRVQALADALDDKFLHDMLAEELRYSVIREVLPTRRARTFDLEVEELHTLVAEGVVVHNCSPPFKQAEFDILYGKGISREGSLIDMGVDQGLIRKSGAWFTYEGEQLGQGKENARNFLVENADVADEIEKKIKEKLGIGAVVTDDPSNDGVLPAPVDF
Mtb growth: M. tuberculosis H37Rv growth inhibitors, H37Rv strain (AID 1626); M. tuberculosis H37Rv growth inhibition; higher % means a stronger effect; inhibition, % at 10 µM, or IC50 in µM where a hit was titrated; hit rate 0.95% among 220,000;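 active = confirmed in a dose series; inconclusive = inhibition above 80% but not taken into the dose series; inactive = below 80% or under 30% at every dose of the series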;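 note: bacteria incubated seven days before Alamar blue readout; 0% = bacteria only wells and 100% = bacteria with antibiotic wells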
YopH inh: blocks Yersinia enterocolitica YopH tyrosine phosphatase | fluorescence Ex485/Em525 | hit rate 0.16% among 140,000 | inhibition, %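 (about 10 µM by stock and volumes)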 | AID 898;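 active = inhibition of 50% or more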;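 note: controls were vehicle for no effect and minimum signal wells for full effect; inactives centre near -20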
Mtb bLac sens: beta-lactam sensitization of Mtb H37Rv | M. tuberculosis H37Rv growth with meropenem, percent inhibition; hits of this screen are not shown here | inhibition, % at 25 µM | hit rate 0.27% among 330,000 | AID 434955;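 active = about 74% or more and at least 40 points above the plate without the antibiotic, then above 30% in a dose series; inconclusive = first-round hits that could not be retested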;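 note: growth measured after seven days incubation then overnight dye step; 0% = bacteria only wells and 100% = bacteria with antibiotic; twin plates without the antibiotic show which effects depend on it; some results filed as inactive read as strong as hits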
Arbovirus inh repeat: second read-out of Arbovirus inh, no call of its own (marks repeat the call); inhibition, %; measured here: 10K subset replicate screen; many hits read low in the repeat;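 first of two repeat runs on a subset; 0% = infected and 100% = uninfected wells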
Numbers without * were called inactive. An excerpt; count on the stated rates, not on these rows.

For CCOc1ccc(C(=O)CCC(=O)N2CCC(C(=O)OC)CC2)cc1 the results were RecA splice inh -4.5 and Mtb bLac sens 0.
COc1ccccc1NC(=O)Nc1nc(CC(=O)NCc2ccccn2)cs1 was read as RecA splice inh 0.4 and Mtb bLac sens -6.
For O=C(CN1CCN(S(=O)(=O)c2ccccc2)CC1)NC1CC1 the results were RecA splice inh -0.4 and Mtb bLac sens -3.
`Fc1ccc(-[n+]2nc(Nc3ccccc3)sc2-c2ccc(OCc3ccccc3)cc2)cc1` gave RecA splice inh 2.8 and Mtb bLac sens -3.
Screening N/C(=N\OC(=O)c1ccccc1Br)c1ccc([N+](=O)[O-])cc1 returned RecA splice inh 0.8 and Mtb bLac sens 5.
`COc1ccc(-c2cc(C(=O)NC3=NCCS3)c3ccccc3n2)cc1OC` gave Arbovirus inh 7, RecA splice inh 1.7, Mtb growth 7% and Mtb bLac sens 32.
Cc1cccc(OCCC(=O)Nc2c(C)n(C)n(-c3ccccc3)c2=O)c1 was read as Arbovirus inh 1, Mtb growth -7%, YopH inh -30 and Mtb bLac sens -5.
For Cc1ccsc1-c1nc(CSCC(=O)N2CCN(c3ccccc3)CC2)c(C)o1 the results were Arbovirus inh 8, RecA splice inh -1.0, YopH inh 1, Mtb bLac sens -7 and Arbovirus inh repeat -2.
O=C(NC1CCCCCCC1)c1ccc(CNc2c(N3CCOCC3)c(=O)c2=O)cc1 was read as Arbovirus inh 3, RecA splice inh 0.2, Mtb growth -4%, YopH inh -31, Mtb bLac sens -7 and Arbovirus inh repeat 0.
Screening COc1ccc(NC(=O)c2ccco2)cc1NC(=O)c1cccc(OC(C)C)c1 returned Arbovirus inh -5, RecA splice inh 2.1, Mtb growth 10%, YopH inh -32 and Mtb bLac sens 10.
For Cc1ccc(-n2c(SCC(=O)Nc3ccc4c(c3)OCO4)nnc2-c2cccs2)cc1 the results were Arbovirus inh 1, RecA splice inh 2.1, Mtb growth -10%, YopH inh 2 and Mtb bLac sens 4.
For O=c1c2ccccc2nc(-c2ccccc2Cl)n1-c1cccc(O)c1 the results were RecA splice inh -0.4 and Mtb bLac sens 4.
`CCC(C)(C)c1ccc(OCC(=O)Nc2ccncc2)cc1` gave RecA splice inh 3.5 and Mtb bLac sens 38.
`CCN(CC)CCCn1c(C)cc2c(c1=O)C(c1cccc(Cl)c1)C(C#N)=C(N)O2` (stereo not drawn) gave Arbovirus inh -1 and YopH inh -36.
O=C(c1ccc(Cl)cc1)c1oc2ccccc2c1CS(=O)c1ccccc1 (stereo not drawn) was read as Arbovirus inh 3, Mtb growth 6%, YopH inh -30 and Mtb bLac sens 7.
`CCCC(=O)Nc1ccccc1NC(=O)CN(C)S(=O)(=O)c1ccc(C)cc1` gave Arbovirus inh -1, RecA splice inh 0.6, Mtb growth -2%, YopH inh -41 and Mtb bLac sens inconclusive.
Screening CCOC(=O)C1CCCN(C(=O)c2ccc([N+](=O)[O-])cc2)C1 (stereo not drawn) returned Arbovirus inh 5, RecA splice inh -0.4, Mtb growth 2%, YopH inh 5 and Mtb bLac sens -2.
`O=C(CSc1nc2ccc(Cl)cc2[nH]1)c1cccs1` gave RecA splice inh 4.8, Mtb growth -3% and Mtb bLac sens 10.
Screening CN(C)/C=C/C(=O)Oc1ccc(Cl)cc1Cl returned Arbovirus inh 4, RecA splice inh -3.6, Mtb growth 4% and Mtb bLac sens -4.
For Cc1ccc(S(=O)(=O)NC(=O)Nc2ccc(F)cc2)cc1 the results were Arbovirus inh 4, RecA splice inh -1.1, Mtb growth -15%, YopH inh -13 and Mtb bLac sens 3.
`CC(=O)OCCn1c(C)[n+](CCOC(C)=O)c2cc(Cl)c(Cl)cc21` gave Arbovirus inh -4, RecA splice inh -2.2, Mtb growth -2% and Mtb bLac sens -8.
CCCN(CCC)C(=O)CC(c1ccc(F)cc1)c1ccco1 (stereo not drawn) was read as Arbovirus inh 2, RecA splice inh 5.5, Mtb growth 5%, YopH inh -7 and Mtb bLac sens 4.
For CCOC(=O)NCc1cc(-c2nn(C)c(=O)c3ccccc23)ccc1C the results were Arbovirus inh -6, RecA splice inh -0.3, Mtb growth 8%, YopH inh -24 and Mtb bLac sens 11.
Screening Cc1nn(-c2cccc(Cl)c2)c2c1C(c1ccncc1)C(C#N)=C(N)O2 (stereo not drawn) returned Arbovirus inh -8, RecA splice inh 57*, Mtb growth -8%, YopH inh -7 and Mtb bLac sens -2.
`CN(C)C(=O)CSc1n[nH]c(=O)n1CCc1ccccc1` gave RecA splice inh -0.4 and Mtb bLac sens -5.
`CS(=O)(=O)Nc1cccc(C(=O)OCCCOc2ccc(F)cc2)c1` gave RecA splice inh 4.6 and Mtb bLac sens 9.
Cc1ccc(C(=O)Nc2ccccc2-c2ccccc2)cc1[N+](=O)[O-] was read as Arbovirus inh -10, RecA splice inh 7.5, Mtb growth 14%, YopH inh 4 and Mtb bLac sens 1.
For COc1ccc(OC)c(/C=N/NC(=O)c2cc3c(OC)c(OC)ccc3[nH]2)c1 the results were Arbovirus inh 3, RecA splice inh 2.5, Mtb growth 70%, YopH inh 5 and Mtb bLac sens 1.
Screening O=c1[nH]cnc2c1c(-c1ccccc1)cn2-c1cccc(Cl)c1 returned RecA splice inh -0.3 and Mtb bLac sens 79.
For Clc1ccc(Cl)c(Oc2ccc(Oc3nc(Cl)ccc3Cl)cc2)n1 the results were Arbovirus inh -1, RecA splice inh -2.7, Mtb growth -5%, YopH inh -13 and Mtb bLac sens -5.
`Cc1ccc(C(=O)CCc2ccc(N)cc2)cc1` gave RecA splice inh -0.6 and Mtb bLac sens 6.
O=c1c2ccccc2cnn1-c1ccc(Cl)nn1 was read as Arbovirus inh 3, RecA splice inh -3.5, Mtb growth 1% and Mtb bLac sens -5.
Cc1ccccc1NC(=O)NCCc1ccc(Cl)cc1 was read as Arbovirus inh -2, RecA splice inh -1.4, Mtb growth 1% and Mtb bLac sens -5.
Screening CCOC(=O)c1cccc(NC(=O)Cn2nc(C)n3cccc3c2=O)c1 returned RecA splice inh 0.7 and Mtb bLac sens -2.
`O=C(O)c1ccc(N2C(=O)c3cccc(Oc4ccc(Cl)cc4)c3C2=O)cc1` gave Arbovirus inh 4, RecA splice inh 2.5, Mtb growth -16%, YopH inh -22 and Mtb bLac sens -2.
For COCCN(Cc1cccs1)S(=O)(=O)c1ccc(-c2ccc(=O)[nH]n2)s1 the results were RecA splice inh 1.7 and Mtb bLac sens 2.
For CC(C)[C@H](NC(=O)N1CC(=O)Nc2ccccc21)C(=O)N[C@H](Cc1ccccc1)C(=O)O the results were RecA splice inh -1.3 and Mtb bLac sens -13.
Screening O=C(CN1C(=O)c2ccccc2S1(=O)=O)NCc1cccnc1 returned Arbovirus inh 10, RecA splice inh -2.1, Mtb growth 1%, YopH inh -45 and Mtb bLac sens 1.
For O=C(Nc1ccccc1N1CCN(C(=O)c2ccccc2)CC1)c1cc(Br)ccc1Cl the results were Arbovirus inh -10, RecA splice inh 22, Mtb growth 9%, YopH inh 19 and Mtb bLac sens 10.
Screening COc1nc(N(C)C)nc(N(OC)S(=O)(=O)c2ccccc2Cl)n1 returned Arbovirus inh -6, RecA splice inh 2.2, Mtb growth -3%, YopH inh -40 and Mtb bLac sens 3.
`CC(Cc1cccnc1)NC(=O)c1ccccc1OC1CCN(S(C)(=O)=O)CC1` (stereo not drawn) gave Arbovirus inh 2, RecA splice inh 2.2, Mtb growth -5% and Mtb bLac sens 1.
`OC1CCN(Cc2nc(Cc3ccccc3Cl)no2)CC1` gave Arbovirus inh 2, RecA splice inh 0.6, Mtb growth 2% and Mtb bLac sens 4.
`O=C(CCC1CCN(C(=O)c2ccccc2Cl)CC1)NCc1ccc(F)cc1` gave RecA splice inh 0.2 and Mtb bLac sens inconclusive.
For CCc1ccc(C(C)NC(=S)NC2CCCCC2)cc1 (stereo not drawn) the results were RecA splice inh 4.6 and Mtb bLac sens 1.
`CC(C)C(c1nnnn1C1CCCC1)N1c2ccccc2CC1C` (stereo not drawn) gave Arbovirus inh 1, RecA splice inh 0.3, Mtb growth -5%, YopH inh 13 and Mtb bLac sens -25.
For CN(Cc1cnccn1)Cc1cn(Cc2ccccc2)nc1-c1ccc2c(c1)OCO2 the results were Arbovirus inh 0, RecA splice inh 1.2, Mtb growth -4% and Mtb bLac sens 9.
`CC(NC(=O)C12CC3CC(CC(O)(C3)C1)C2)c1ccc(Cl)cc1Cl` (stereo not drawn) gave RecA splice inh 0.2 and Mtb bLac sens 1.
`CNc1ncc(Cc2ccccc2)s1` gave Arbovirus inh -5, RecA splice inh 0.0, Mtb growth 15%, YopH inh -15 and Mtb bLac sens 11.
CC1=NOC(=O)/C1=C\c1ccc(-c2ccc(Cl)cc2Cl)o1 was read as Arbovirus inh -39, RecA splice inh 2.4 and YopH inh -32.
`CC(C)c1nc(NCCO)c2nnn(Cc3ccccc3)c2n1` gave Arbovirus inh 3, RecA splice inh -0.2, Mtb growth -2% and Mtb bLac sens 3.
For Cc1ccc(NC(=O)Cn2nnc(C(=O)NCc3ccco3)c2N)cc1 the results were Arbovirus inh -3, RecA splice inh -4.8, Mtb growth 0%, YopH inh -25 and Mtb bLac sens 7.
For CC1(C)Cc2ccccc2-c2nnc(SCc3ccccc3)n21 the results were Arbovirus inh -11, RecA splice inh 1.2, Mtb growth 11%, YopH inh -16 and Mtb bLac sens 9.
Screening COc1ccc(N=C2SC(C(=O)Nc3ccc(OC)cc3)CC(=O)N2CCN2CCOCC2)cc1 (stereo not drawn) returned Arbovirus inh -5, RecA splice inh 0.5, Mtb growth 2%, YopH inh -12 and Mtb bLac sens -2.
c1ccc(Nc2nc(-c3cccs3)cs2)nc1 was read as Arbovirus inh -2, RecA splice inh 11, Mtb growth 3%, YopH inh -23 and Mtb bLac sens 8.
COC(=O)/C=c1/s/c(=C(/C#N)C(=O)NCc2ccccc2)n(-c2ccccc2)c1=O was read as Arbovirus inh -5, RecA splice inh -0.5, Mtb growth -11%, YopH inh -22 and Mtb bLac sens 0.
For CC1CCN(C(=O)CSc2nnc3c(n2)[nH]c2ccc(F)cc23)CC1 the results were RecA splice inh 0.4 and Mtb bLac sens -2.
Screening CN(C)c1cccc(C(=O)NNC(=O)NC2CCCCC2)c1 returned Arbovirus inh -4, RecA splice inh -1.6, Mtb growth 0%, YopH inh -9 and Mtb bLac sens 0.
Screening O=C(CSc1nc2ccccc2o1)N1CCOCC1 returned RecA splice inh 5.0 and Mtb bLac sens inconclusive.
`CCC(C)NCC(=O)Nc1cc(S(=O)(=O)N(CC)c2ccccc2)ccc1Cl` (stereo not drawn) gave Arbovirus inh -1, RecA splice inh -2.4, Mtb growth 7%, YopH inh -12 and Mtb bLac sens 1.
O=C(c1ccc2ccccc2c1)N1CCN(S(=O)(=O)/C=C/c2ccccc2)CC1 was read as Arbovirus inh -3, RecA splice inh 3.3, Mtb growth 13% and Mtb bLac sens -12.

6 consecutive entries from above, for reference:
COC(=O)/C=c1/s/c(=C(/C#N)C(=O)NCc2ccccc2)n(-c2ccccc2)c1=O was read as Arbovirus inh -5, RecA splice inh -0.5, Mtb growth -11%, YopH inh -22 and Mtb bLac sens 0.
For CC1CCN(C(=O)CSc2nnc3c(n2)[nH]c2ccc(F)cc23)CC1 the results were RecA splice inh 0.4 and Mtb bLac sens -2.
Screening CN(C)c1cccc(C(=O)NNC(=O)NC2CCCCC2)c1 returned Arbovirus inh -4, RecA splice inh -1.6, Mtb growth 0%, YopH inh -9 and Mtb bLac sens 0.
Screening O=C(CSc1nc2ccccc2o1)N1CCOCC1 returned RecA splice inh 5.0 and Mtb bLac sens inconclusive.
`CCC(C)NCC(=O)Nc1cc(S(=O)(=O)N(CC)c2ccccc2)ccc1Cl` (stereo not drawn) gave Arbovirus inh -1, RecA splice inh -2.4, Mtb growth 7%, YopH inh -12 and Mtb bLac sens 1.
O=C(c1ccc2ccccc2c1)N1CCN(S(=O)(=O)/C=C/c2ccccc2)CC1 was read as Arbovirus inh -3, RecA splice inh 3.3, Mtb growth 13% and Mtb bLac sens -12.

(listing goes on)
`O=C(O)C1CC=CCC1C(=O)Nc1ccccc1` (stereo not drawn) gave Arbovirus inh 15, RecA splice inh 0.6, Mtb growth -4%, YopH inh -16 and Mtb bLac sens -5.
For O=C(NC1CCCN(Cc2ccc(Cl)cc2)C1)c1cnc2ccccn2c1=O (stereo not drawn) the results were RecA splice inh 3.3 and Mtb bLac sens 6.
For CCOC(=O)c1c(NC(=S)NC(=O)c2ccc(Cn3cc(Cl)cn3)o2)sc2c1CCC(C)C2 (stereo not drawn) the results were Arbovirus inh 0, Mtb growth -12% and YopH inh -32.
Screening COC(=O)c1ccccc1NC(=O)Nc1cc(C(C)(C)C)on1 returned RecA splice inh 3.2 and Mtb bLac sens -12.
For O=C(Nc1ccc(C(F)(F)F)cc1)N1CCN(c2ccnc3cc(Cl)ccc23)CC1 the results were RecA splice inh 11, Mtb growth 8.6µM* and Mtb bLac sens 100.
